HttQ103 aggreg: mutant huntingtin aggregation inhibition | AID 1688 | 220,000 tested, 1.1% active | PC12 HttQ103-GFP aggregates, Acumen cytometry, 40 h | Potency, µM (top dose mostly 46.1 µM), inactives show at the top dose activity change, negative = inhibition, hits mostly inhibitors; also: % is scaled to controls: 0 for no effect and ±100 for the full control effect; nearly all actives have a fitted effect of over 60% in size
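Inducible Q103 Huntingtin exon 1–GFP PC12 line, 1500 cells/well in phenol red free DMEM with 5% equine and 5% calf serum. Tebufenozide 100 nM induced expression; compounds titrated; aggregates quantified by cytometry.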
IMPase Li cell: cell-permeable IMPase inhibitors with lithium potentiation | 210,000 tested, 0.35% active | CHO-M1 cells, IP1 TR-FRET (IP-One), carbachol + lithium | AID 1457 | Potency, µM (top dose mostly 59.4 µM), inactives show at the highest dose activity, negative = IMPase inhibition, actives largely listed as inhibitors;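 also: IP1 builds up when IMPase is blocked and the TR-FRET signal falls; plate controls were basal vehicle for no effect and high inhibitor control for full effect; nearly all actives have a fitted effect of over 50% in size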
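Test compounds were applied to CHO-M1 cells previously cultured for 16–30 h at 2000 per well. A small lithium amount accompanied them; after 30 min at 37C, IP1 was quantified by TR-FRET.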
Epigenetic reg: regulators of epigenetic silencing causing reporter derepression in mouse cells. AID 1865. Potency, µM (titrated, usually from 53.9 µM), for inactives: at the highest dose GFP activation, actives largely listed as activators. 280,000 tested, 0.2% active. murine LDR cells, GFP reporter derepression, 30 h; also: % of control where 0% means no effect; nearly all actives have a fitted effect of over 60% in size
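Murine LDR cells carrying a silenced, genomically integrated CMV-driven GFP reporter were exposed to compound for 30 hours at 37 C. After PBS washes, GFP-positive cells (20–120 um objects) were counted by laser-scanning microplate cytometry.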
Luc counter: blocks Kinase-Glo luciferase, a counter-screen artifact; Q27757; Kinase-Glo luciferase, ATP luminescence, 8 min; Potency, µM (doses to about 38.3 µM), without a hit: at the top dose activity change, negative = inhibition, usual class: inhibitors; 200,000 tested, 0.28% active; AID 1379; also: % is scaled to controls: 0 for no effect and ±100 for the full control effect; nearly all actives have a fitted effect of over 60% in size
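Kinase-Glo luciferase light output from ATP and luciferin was measured with 10 uM ATP, within the enzyme's linear range. Buffer: 50 mM imidazole pH 7.2, 50 mM KCl, 7 mM MgCl2, 0.01% Tween 20, 0.05% BSA; luminescence read after 8 min at ambient temperature.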
Starred values were filed as active, the others as inactive; ? = inconclusive; / = not tested or not shown; & = joins results of further samples; [ ] = remark or other dose. Calls follow the shape of the dose curve; as a rule, active = well fitted curve in the direction sought with a large enough effect; inconclusive = small, poorly fitted or top-dose-only effect, or another doubt; inactive = no such curve, though single readings can be large; an effect the other way counts as inactive or inconclusive. Potency is read from the fitted curve at half-maximal effect.

Keys: A = HttQ103 aggreg; B = IMPase Li cell; C = Epigenetic reg; D = Luc counter
> O=C(CSc1nnc2c3c4c(sc3ncn12)CCCC4)NCc1ccco1
  A = 5.6% | B = ? | C = -1.0% | D = -5.5%

> C#CCN(C)[C@@H](C)Cc1ccccc1
  A = -3.0% | B = 0.8% | C = 2.7%[16.9 µM] | D = -0.4%[17.1 µM]

> NC(N)=NC(=O)c1nc(Cl)c(N)nc1N
  A = ? | B = -1.3%&-3.8%&-2.9%&-2.6%&14.4%&16.7%&8.7%&-1.4% | C = 1.0% | D = -1.1%

> CON(C)C(=O)Nc1ccc(Cl)cc1
  A = 16.7% | B = 6.8%[38.3 µM] | C = -1.1% | D = -2.7%

> CCC(C)OC(=O)c1c(N)n(Cc2cccs2)c2nc3ccccc3nc12 (configuration not stated)
  A = 5.8% | B = 9.6%[38.3 µM] | C = -2.0% | D = 17.7%

> C=CC1CN2CCC1CC2[C@@H](OC(=O)c1ccc(OC)cc1)c1ccnc2ccccc12 (some centres not stated)
  A = -32.0% | B = 13.4% | C = -1.9% | D = 0.6%

> Cc1ccc(Cn2nnnc2CN2CCC(n3nnc4cc(C(F)(F)F)ccc43)CC2)cc1
  A = -21.4% | B = 41.1%[38.3 µM] | C = -1.0% | D = 5.9%

> Nc1cc(Cl)cc(Cl)c1
  A = / | B = 3.4% | C = / | D = /

> Cc1cc(Oc2ccc(C(F)(F)F)cc2[N+](=O)[O-])c2c3c(c(=O)oc2c1)CCCC3
  A = -2.3% | B = 5.0% | C = -1.0% | D = 0.4%

> Cc1nc2cc(C(F)(F)F)ccc2n1C1CCN(Cc2nnnn2Cc2ccc3c(c2)OCO3)CC1
  A = -0.7% | B = 54.6%[activator][38.3 µM] | C = 1.0% | D = 0.9%

> O=C(c1cc(F)ccc1F)C1CCCN(Cc2ccc3nonc3c2)C1 (configuration not stated)
  A = / | B = 23.2% | C = 0.0% | D = 1.3%

> C=C1C/C(=C/C)C(=O)O[C@@H]2CCN3CC=C(COC(=O)[C@]1(C)O)[C@H]23
  A = -3.1%[9.22 µM] | B = / | C = -0.1% | D = /

> c1ccc2sc(C3CCCNC3)nc2c1 (configuration not stated)
  A = -8.4% | B = 11.2% | C = 0.0% | D = -3.1%

> COCCCn1c(-c2ccc(OC)cc2)cc(C(=O)NC2CCCCCCC2)c1C
  A = ? | B = 2.7% | C = -0.1% | D = -2.4%

> CC(=O)O[C@H]1CC[C@@]2(C)C(=CC[C@@H]3[C@H]2CC[C@]2(C)C(=O)CC[C@H]32)C1
  A = 7.7%[20.6 µM] | B = 1.9% | C = 1.1%[16.9 µM] | D = -0.8%[17.1 µM]

> Oc1c(Cl)c(Cl)c(Cl)c(Cl)c1Cl
  A = / | B = 5.4%&16.1% | C = -1.1% | D = -2.4%

> CN[C@@H](C)[C@H](O)c1ccccc1
  A = / | B = -7.1% | C = 3.7% | D = ?

> CC(Cl)Cl
  A = / | B = 19.2% | C = / | D = /

> CC(C)(O)C1C2OC(=O)C1[C@]1(O)C[C@H]3O[C@]34C(=O)O[C@H]2[C@]14C (some centres not stated) (tested in a mixture with another compound)
  A = 19.5% | B = 13.8% | C = -0.2% | D = -10.7%

Source: PubChem BioAssay

A portion of the library (hit frequency here may not be typical).
